# Screening results as filed in PubChem BioAssay.
# Env fusion inh: inhibitors of HIV Env-mediated cell fusion; HeLa-JRFL Env/CEM21 cell fusion, luciferase; inhibition, % at 12.3 µM; 360,000 compounds, 1.1% hits;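 active = mean replicate inhibition score of at least 50 and every replicate individually at or above 50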;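 also: 0% = plate neutral controls and 100% = maraviroc near 300 nM; one replicate is shown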
# PABP polyA inh: PABP-poly(A) binding inhibition. AID 2014. PABP-poly(A) RNA binding, fluorescence polarization. 290,000 compounds, 1% hits. inhibition, % at 35 µM;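 active = 50% or more with normal probe brightness, or confirmed in later tests; about a fifth of its hits are not listed in these tables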;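 also: calls also rest on retests at 20 µM and on dose response follow-up; controls were probe without protein and protein plus probe with vehicle; some compounds called inactive have numbers as strong as hits; many hits fall short of the cut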
# Rce1 inh: inhibitors of yeast Ras-converting enzyme | Q03530 | yeast membranes, quenched prenylated peptide cleavage fluorescence | calls only | 290,000 compounds, 0.27% hits;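 active = fall in fluorescence gain of 50% or more versus controls, with final raw signal at or below 3038400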;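 also: plate controls were neutral control wells for no effect and wells lacking membranes for full effect; tested at 10 µM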
# Target sequence (Q03530 whole entry, looked up): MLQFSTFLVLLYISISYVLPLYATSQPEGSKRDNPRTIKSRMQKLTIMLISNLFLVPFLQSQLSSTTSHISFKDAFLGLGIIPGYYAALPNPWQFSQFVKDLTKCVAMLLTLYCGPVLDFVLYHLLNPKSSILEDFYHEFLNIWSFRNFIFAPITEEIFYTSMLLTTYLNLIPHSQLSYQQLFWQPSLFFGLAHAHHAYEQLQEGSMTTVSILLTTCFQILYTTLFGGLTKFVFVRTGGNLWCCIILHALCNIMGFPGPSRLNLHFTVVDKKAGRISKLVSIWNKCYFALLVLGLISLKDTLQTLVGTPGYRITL
# eIF4H inh: inhibitors of RNA binding by human eIF4H | eIF4H fluorescence polarization binding assay | inhibition, % at 35 µM | 290,000 compounds, 0.94% hits | AID 2012;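 active = 50% or more with normal probe brightness, or confirmed in later tests; about a fifth of its hits are not listed in these tables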;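 also: calls also rest on retests at 20 µM and on dose response follow-up; 0% = protein and probe with vehicle and 100% = probe without protein; strong numbers were not always called active; many hits fall short of the cut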
# Yeast UUG start: alters start codon recognition fidelity in yeast. S. cerevisiae UUG-firefly luciferase reporter, luminescence/redox ratio. activity score, % at 18.7 µM. 350,000 compounds, 0.13% hits;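 active = replicate mean at a twofold rise or more, about +100% in these data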;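 also: firefly luciferase made from a UUG start codon reports start codon fidelity; reporter light over untreated wells divided by growth signal over untreated wells; some hits fall short of that in this replicate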
# CSC inhib: blocks cancer stem cells. 300,000 compounds, 1.1% hits. cancer stem cell-like cells viability, luminescence. inhibition, % at 7.5 µM;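 active = mean at 75% or more and at least half the replicates too; tested in HMLE shEcad cells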;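 also: 0% = median of negative and 100% = median of positive control wells; the first replicate is given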
# MT1-MMP act inh: inhibitors of human MT1-MMP activation; P50281; HT1080 RFP-PRO-GFP cells, GFP/RFP ratio fluorescence, overnight; percent of plate control window, DMSO zero; GFP/RFP ratio change, % at 20 µM; 360,000 compounds, 0.061% hits;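 active = GFP/RFP ratio change of at least 30% with cell ATP level not reduced by more than half and red fluorescence within 50% of control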; also: strong numbers were not always called active
#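 Assay system: HT1080 RFP-PRO-GFP cells | Dosing: 20 µM single dose, 1% DMSO | Incubation: Cells overnight before dosing, compound overnight, 37 °C, 5% CO2 | Evaluation: GFP/RFP fluorescence ratio | Control set: DMSO-only wells and HT1080 RFP-L50D-GFP cell wells as references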
# eIF4H inh retest: further read-out of eIF4H inh, marked with its call; inhibition, %; compound at 20 µM; confirmation average;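 mean of two retest wells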
# PABP polyA inh retest: also measured in PABP polyA inh; calls as there; inhibition, %; compound at 20 µM; confirmation repeats;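 mean of two retest wells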
# MT1-MMP act inh RFP: further read-out of MT1-MMP act inh, marked with its call; RFP signal change, %; measured here: RFP expression control read;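 0 = vehicle wells; hits needed this value within 50% of zero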
# Starred values were filed as active, the others as inactive; i = inactive; / = not tested or not shown.
SMILES,Env fusion inh,PABP polyA inh,Rce1 inh,eIF4H inh,Yeast UUG start,CSC inhib,MT1-MMP act inh,MT1-MMP act inh RFP,others
COc1cccc(C2C(C(=O)c3cc4ccccc4o3)=C(O)C(=O)N2CCN(C)C)c1OC (stereo unspecified),/,/,i,/,-30,-4,1,2,
CC(=O)c1cccc(N2C(=NC(=O)C(C)C)SC3CS(=O)(=O)CC32)c1 (stereo unspecified),-24,10,i,0,-21,5,1,0,
CC1(C)Oc2ccc(C(=O)N3CCCCC3)cc2N(CC(=O)NCc2ccccc2)C1=O,/,2,i,-2,6,/,-4,-3,
CCOC(=O)N1CCN(C(=O)c2cccc(OC)c2OC)CC1,-7,4,i,-3,4,-9,-1,4,
O=C(c1ccc(Cl)cc1)N1CCc2ccccc21,-24,-3,i,-2,-3,6,-1,-11,
CC1CCCN(S(=O)(=O)c2ccc(C(=O)Nc3nnc(-c4ccccn4)o3)cc2)C1 (stereo unspecified),-3,-2,i,8,/,26,-2,-1,
O=C(CN1CCN(c2ccccc2)CC1)Nc1ccc(F)cc1,-8,-4,i,-10,-2,1,-4,0,
CCC(C)[C@H](NC(=O)N1CCCCCC1)C(=O)O (stereo partly specified),-4,-3,i,-15,-15,0,0,5,
COc1ccc2nc(NC(=O)c3ccccc3O)sc2c1,-234,8,i,1,-23,22,4,-21,
COc1cc([N+](=O)[O-])ccc1NC(=O)COC(=O)c1c[nH]c(=O)[nH]c1=O,14,/,/,/,-8,-15,3,1,
CC(C)c1nc(CNC(=O)CCc2nnc(-c3ccsc3)o2)cs1,3,6,i,-10,/,1,5,9,
Cc1ccc(S(=O)(=O)NC(C)C(=O)NC2CC2)cc1 (stereo unspecified),29,-9,i,-2,-9,-4,2,4,

# Of the compounds above, these have two or more sulfur atoms:
SMILES,Env fusion inh,PABP polyA inh,Rce1 inh,eIF4H inh,Yeast UUG start,CSC inhib,MT1-MMP act inh,MT1-MMP act inh RFP,others
CC(=O)c1cccc(N2C(=NC(=O)C(C)C)SC3CS(=O)(=O)CC32)c1 (stereo unspecified),-24,10,i,0,-21,5,1,0,
CC(C)c1nc(CNC(=O)CCc2nnc(-c3ccsc3)o2)cs1,3,6,i,-10,/,1,5,9,

# Continued:
SMILES,Env fusion inh,PABP polyA inh,Rce1 inh,eIF4H inh,Yeast UUG start,CSC inhib,MT1-MMP act inh,MT1-MMP act inh RFP,others
O=C(Cn1cc(C(F)(F)F)ccc1=O)Nc1cc(S(=O)(=O)N2CCOCC2)ccc1Cl,-5,-4,i,0,-4,4,-3,1,
COc1ccc(S(=O)(=O)Nc2ncccn2)cc1,-25,-7,i,-8,-18,0,-2,4,
Cc1cccc(C)c1NC(=O)C(=O)NCc1ccccn1,-55,-3,i,-6,-8,-14,-1,-1,
O=C1C=C(NC2=CC3OC(c4ccccc4)OCC3OC2=O)CCC1 (stereo unspecified),4,-9,i,-2,/,23,2,0,
S=c1[nH]nc2c3c4c(sc3ncn12)CCCC4,/,2,i,12,/,-4,-2,1,
COc1ccc(NC(=O)CN2C(=O)CC(C)(C)S(=O)(=O)c3ccccc32)cc1,-1,-6,i,2,6,0,1,4,
C=CCn1c(C(C)NC(=O)CC)nc2ccccc21 (stereo unspecified),/,-4,i,-9,-7,8,0,2,
CC1(C)C(C=C(Cl)Cl)C1C(=O)Nc1ccc([N+](=O)[O-])cc1 (stereo unspecified),11,-20,/,2,/,54,/,/,
COC(=O)C1=C(C)OC(N)=C(C#N)C1c1cc2cccc(C)c2nc1Cl (stereo unspecified),/,67,i,-4,/,8,/,/,eIF4H inh retest=-3;PABP polyA inh retest=15
C=CCn1c(SCC(=O)N(CCO)CCO)nc2sc3c(c2c1=O)CCC3,2,-2,i,4,3,-6,-2,-2,
CCNC(=O)c1cccc(NC(=O)CN2C(=O)NC3(CCCCC3)C2=O)c1,-8,/,/,/,-10,/,1,1,
CCCOc1ccc(CN2CCOCC2)cc1OC,4,5,i,-13,-21,-5,2,1,
CC(=O)C(Sc1ncnc2c1nnn2-c1ccc(F)cc1)C(=O)N(C)C (stereo unspecified),/,2,i,-4,/,3,/,/,
COc1cccc(CNc2nccs2)c1O,10,-5,i,-12,3,10,1,2,
CCOC(=O)c1c(C)[nH]c(C(=O)CN2CC(C)OC(C)C2)c1C (stereo unspecified),/,-2,i,0,-13,1,-3,-1,
CCN1C(=O)/C(=C/c2cn(-c3ccccc3)nc2-c2cccnc2)SC1=S,8,/,/,/,-6,/,-38,-1,
Cc1ccc(N(CC(=O)NC(C)(C)C)C(=O)CS(=O)CC(=O)Nc2ccc(F)cc2)cc1 (stereo unspecified),2,-10,i,-6,/,2,-4,-1,
O=C1/C(=C/c2cccs2)SC(=S)N1CCCC(=O)N(CCO)c1ccccc1,7,7,i,0,-23,-5,2,-1,
COC(=O)C(C)Oc1ccc2c(c1)O/C(=C\c1cccc(Br)c1)C2=O (stereo unspecified),-12,-4,i,-6,-15,-4,-1,0,
Cc1nc2ccccc2n1CC(=O)N/N=C\C=C\c1ccccc1,-45,-6,i,-11,-14,-6,3,-11,
CCCCN1C(=O)c2ccc(C(=O)Nc3cccnc3)cc2C1=O,/,10,i,-2,7,-7,-1,3,
CC1=C(C(=O)N(C(C)C)C(C)C)CC(CC(=O)NCc2cccc3ccccc23)C(=O)N1Cc1ccc(F)cc1 (stereo unspecified),13,/,/,/,-11,/,9,-8,
N#Cc1c(SCC(=O)Nc2nccs2)nc2c(c1-c1ccco1)CCCC2,/,7,i,3,-14,/,1,3,
CCN(CC)S(=O)(=O)c1ccc2c3c(cccc13)C(=O)S2,/,-10,i,-16,/,-6,-9,-6,

# Filtered by structure: the compounds so far with a nitro group on carbon
SMILES,Env fusion inh,PABP polyA inh,Rce1 inh,eIF4H inh,Yeast UUG start,CSC inhib,MT1-MMP act inh,MT1-MMP act inh RFP,others
COc1cc([N+](=O)[O-])ccc1NC(=O)COC(=O)c1c[nH]c(=O)[nH]c1=O,14,/,/,/,-8,-15,3,1,
CC1(C)C(C=C(Cl)Cl)C1C(=O)Nc1ccc([N+](=O)[O-])cc1 (stereo unspecified),11,-20,/,2,/,54,/,/,

# Next results:
SMILES,Env fusion inh,PABP polyA inh,Rce1 inh,eIF4H inh,Yeast UUG start,CSC inhib,MT1-MMP act inh,MT1-MMP act inh RFP,others
CCn1c(SCC(=O)Nc2cccc(C)c2)nc2c(c1=O)SC(C)C2 (stereo unspecified),-15,-18,i,-14,-3,-10,-2,-3,
COc1ccc(O)c(C(=O)c2cnn(C(=O)c3cccc(S(=O)(=O)N4CCOCC4)c3)c2)c1,-14,9,i,2,-2,3,-10,-9,
Cc1nc(-c2cccc(NC(=O)c3ccco3)c2)cs1,-39,-1,i,2,-2,-1,-4,-1,
Cc1cc(Cl)ccc1-n1c(-c2cccnc2)n[nH]c1=S,-10,-4,i,-4,/,-4,-4,-1,
Cn1cnnc1SCC(=O)Nc1ccc(Cl)cn1,-17,4,i,-2,/,-6,0,3,
COc1ccc(N(CC(=O)NC(C)c2ccccc2)S(=O)(=O)c2ccc(C)cc2)cc1 (stereo unspecified),-2,-2,i,1,-8,0,-3,-2,
COCC(=O)Nc1nnc(Cc2ccc(OC)c(OC)c2)s1,-39,-4,i,-3,-7,-15,2,7,
CC(OC(=O)c1cccs1)C(=O)NCc1ccc2c(c1)OCO2 (stereo unspecified),5,4,i,6,-16,-17,6,7,
O=C(CCN1C(=O)C2C3C=CC(C3)C2C1=O)Nc1c(F)cc(F)cc1Br (stereo unspecified),/,8,i,-6,-1,-3,-2,9,
O=C(COC(=O)/C=C/c1ccc(OC(F)F)cc1)Nc1ccc(S(=O)(=O)N2CCCC2)cc1,8,12,i,-8,-1,-1,2,2,
Cc1cc(NC(=O)COC(=O)C2=COCCO2)c([N+](=O)[O-])cc1C,-6,7,i,-8,/,-3,2,4,
COc1ccccc1CNC(=O)COC(=O)c1cc([N+](=O)[O-])ccc1N1CCOCC1,0,-2,i,-5,9,-9,-1,0,
O=C(NCCc1ccccc1)/C(=C\c1ccccc1)NC(=O)c1ccco1,-2,-4,i,-1,4,-6,-2,-2,
COC(=O)c1sc(NC(=O)/C=C/c2ccc(C)cc2)nc1C,-7,-1,i,-5,/,13,2,0,
O=C(c1ccc(=O)[nH]c1)N(Cc1ccco1)C1(C(=O)NC2CCCC2)CCCCC1,/,22,i,5,3,1,-3,4,
Cc1ccnc(NC(=O)c2ccc(Cl)c(NC(=O)CCc3ccccc3)c2)c1,0,-6,i,6,/,-1,/,/,
CCOc1ccc(NC(C)c2cc(Cl)ccc2O)cc1 (stereo unspecified),/,-8,i,4,-10,9,-2,-1,
CCOC(=O)c1[nH]c2ccc(OC)cc2c1NC(=O)CCN1CCN(Cc2ccccc2)CC1,-16,1,i,-2,47,/,5,3,
O=C(CSc1nnc(SCc2ccccc2)s1)N/N=C/c1ccc(C(=O)O)cc1,5,16,i,-4,-16,5,0,4,
CC(Sc1n[nH]c(N)n1)c1nc2scc(-c3cccs3)c2c(=O)[nH]1 (stereo unspecified),/,-3,i,5,/,-15,1,-5,
CCOc1cc(C2NC(=S)NC(C)=C2C(=O)Nc2ccccc2)ccc1O (stereo unspecified),-38,8,i,-8,-7,-5,-2,2,
COc1ccc(Cn2nnnc2CN(Cc2cc3cccc(C)c3[nH]c2=O)C2CCCC2)cc1,/,-7,i,-17,-15,-10,0,0,
CCOc1ccc(-c2ccc(/C=C3/C(=N)N4C(C)=CSC4=NC3=O)o2)c([N+](=O)[O-])c1,22,5.9*,i,80*,-10,-2,21,5,eIF4H inh retest=87*;PABP polyA inh retest=81*
CC(SCC(=O)NC12CC3CC(CC(C3)C1)C2)C(=O)O (stereo unspecified),-7,-11,i,6,/,-9,3,7,
O=C(Cn1cnc2c(cnn2-c2ccccc2)c1=O)NC1CCCC1,6,13,i,-7,-12,5,0,0,
CC1CC(C)CN(S(=O)(=O)c2ccc(C(=O)NNC(=O)c3ccccc3F)cc2)C1 (stereo unspecified),-2,/,/,/,2,-9,2,0,
CCN(C(=O)c1cn(C)c(=O)c2cc(OC)c(OC)cc12)c1ccccc1C,-3,-7,/,11,26,2,3,1,
CC(=O)Nc1ccc(/C=N/NC(=O)CCN2CCN(c3ccccc3)CC2)cc1,-2,1,i,0,/,-15,2,5,
Cc1onc(-c2ccccc2Cl)c1C(=O)Nc1cc(=O)n(C)c(=O)n1C,/,/,i,/,-9,-8,0,2,
O=C(CSCc1ccc(Cl)cc1)c1ccco1,/,10,i,2,/,11,/,/,
Nc1ncnc2c1ncn2[C@@H]1O[C@H](C(=O)N(CCC2=CCCCC2)CC2CC2)[C@@H](O)[C@H]1O,5,/,/,/,-8,/,4,-4,
CNC(=O)n1ccc(C(=O)N2CCCCC2)n1,-6,-10,i,-12,-1,-18,3,3,
CC(C)C[C@H]1CN=C(N(C)C)N1CC(C)C,-12,/,/,/,-9,-5,4,4,
CCCN(CC(=O)Nc1ccccc1C)C(=O)CCl,24,14,/,3,-2,-2,-1,-1,
CCOc1ccc(CNC(c2ccccc2)c2ccccc2)cc1,7,7,i,-1,-7,3,0,2,
CC(Oc1cccc(Cl)c1)C(=O)Nc1ccc(S(=O)(=O)NC2=NCCCCC2)cc1 (stereo unspecified),13,/,i,/,-3,-15,3,-3,
CC(C)c1ccc(S(=O)(=O)c2cn(Cc3ccc(F)cc3)c3cc4c(cc3c2=O)OCO4)cc1,/,-2,i,-4,/,-2,/,/,
O=S(=O)(Nc1cccc(-n2cnnn2)c1)c1ccccc1F,7,1,i,-10,-18,-2,7,3,
O=C(Cn1c(NCCCO)nc2ccccc21)c1ccc(F)cc1,-5,1,/,-8,0,2,-4,-3,
COCCN1CCN(C(=O)C2CCC(=O)N(CCCc3ccccc3)C2)CC1 (stereo unspecified),5,-5,i,1,-12,-13,0,2,
Cc1noc(C)c1C(=O)NC(C)C1CCCO1 (stereo unspecified),-22,-2,i,-14,-11,-9,1,4,
